2A firefly = FMDV 2A StopGo reporter, firefly signal. HEK cells with a luciferase reporter of 2A StopGo recoding. Potency, µM (highest dose often 57.5 µM), inactives show at the top dose signal change, negative = less light. 120,000 compounds, 0.23% hits; active = well fitted falling curve with a large enough effect; inconclusive = small, poorly fitted or top-dose-only effect; inactive = no such curve, though single readings can be large or run the other way; note: nearly all actives have a fitted effect of over 60% in size; overnight with compound
2A Renilla = FMDV 2A StopGo reporter, Renilla signal; HEK cells with a luciferase reporter of 2A StopGo recoding; Potency, µM (top dose mostly 57.5 µM), without a hit: at the highest dose signal change, negative = less light; 120,000 compounds, 0.32% hits; AID 1745857; active means well fitted falling curve with a large enough effect; inconclusive means small, poorly fitted or top-dose-only effect; inactive means no such curve, though single readings can be large or run the other way; note: nearly all actives have a fitted effect of over 55% in size; overnight with compound
* = called active by the depositor; u = inconclusive; & = joins results of further samples; [ ] = another dose, or the depositor's remark. % is set by controls: 0 for no effect and ±100 for the full control effect; potency is the fitted concentration of half-maximal effect. Not all compounds are listed; count on the stated rates, not on these rows.

Compound	2A firefly	2A Renilla
O=C(Cn1c(-c2cscn2)nc2ccccc21)Nc1ccc(N2CCCCC2)cc1	7%	-8%
CC(C)c1noc(-c2ccc(OCC(=O)NCc3cc(F)cc(F)c3)cc2)n1	-13%	u
N#CC1=C(N)Oc2cc(O)ccc2C1c1ccccc1 (stereo unspecified)	-29%	-16%
Cn1ccnc1Sc1ncc(C(F)(F)F)cc1Cl	7%	6%
Cc1ccc(Cn2c(CN3CCN(c4ccccc4)CC3)nc3c2c(=O)n(C)c(=O)n3C)cc1	-15%	2%
CCOc1ccccc1NC(=O)CC1C(=O)Nc2ccccc2N1C(=O)c1ccccc1 (stereo unspecified)	-13%	42%[activator]
CCc1ccc(C(C)NC(=O)Cn2nnn(-c3ccccc3)c2=O)cc1 (stereo unspecified)	10%	6%
Cc1ccc(C(C)NC(=O)C2CCCO2)c(C)c1 (stereo unspecified)	12%	10%
CC(Sc1nnc(-c2ccncc2)n1C1CC1)C(=O)c1ccc(F)cc1 (stereo unspecified)	34%	-3%
O=c1oc2cc(OCc3nn[nH]n3)ccc2cc1-c1ccccc1	29%	-22%
CNC(=O)c1ccc(NC(=O)c2cccc[n+]2[O-])cc1	29%	8%
O=C1c2ccccc2-c2onc3c(Br)cc(NC4CCCCC4)c1c23	-7%	-11%
CCc1nc2ccccc2c(C(=O)OCC(=O)N2CCCC(C)C2)c1C (stereo unspecified)	55%[activator]	16%
CN(CCOc1ccccc1)CC1CCCO1 (stereo unspecified)	24%	17%
CCc1nc(NCC(C)O)c(C#N)c2c1CCCC2 (stereo unspecified)	10%	-6%
COc1ccc(-c2cc(COc3ccc(Cl)cc3)on2)cc1	22%	13%
NC(Cc1ccccc1)c1cc2ccccc2[nH]1 (stereo unspecified)	0%	-21%
N#CC(C(=O)C1c2ccccc2Oc2ccccc21)c1ccccn1 (stereo unspecified)	0%	38%[activator]
COc1ccccc1CCNC(=O)CCCn1c(=O)c2cccn2c2cccnc21	0%	-2%
CCOc1ccc(Nc2c(S(=O)(=O)c3ccc(Cl)cc3)cnc3ccc(OC)cc23)cc1	u	-18%
CC(C)NC(=O)C(C)ONC(=O)c1cccc(C(F)(F)F)c1 (stereo unspecified)	6%	5%
Cc1cccc(NC(=O)c2nc(S(C)(=O)=O)ncc2Cl)c1	u	35µM*
O=C(/C=C/c1ccc(F)cc1)Nc1ccc(Cl)c(C(F)(F)F)c1	u	u
Cn1nc(C(=O)NC(Cc2ccc(O)cc2)C(=O)O)c2ccccc2c1=O (stereo unspecified)	-7%	-10%
Cc1cc(C)c(NC(=O)CSc2n[nH]c(-c3ccccc3Cl)n2)c(C)c1	-23%	-6%
CCN(Cc1ccccc1)C(=O)c1cn(-c2cccc(OC)c2)c(=O)c2ccccc12	20%	177%[activator]
Cc1ccc2nc(-c3ccc(C)o3)cc(C(=O)O)c2c1	25%	-10%
OCCCNC(=S)NCCSc1ccccc1	126%[activator]	20%
Cc1ccc(-c2csc(-c3nc(-c4cc(C)ccc4C)cs3)n2)cc1	10%	-10%
COC(=O)COc1ccc2c(C)c(-c3ccc(OC)cc3)c(=O)oc2c1	-7%	-3%
C/C(=N\NC(=O)c1cccc(Cl)c1)c1cccs1	206%[activator]	24%
CCc1cccc(NC(=O)C(NS(=O)(=O)c2ccc3nc(C)sc3c2)C(C)C)c1 (stereo unspecified)	-7%	14%
CCOc1ccccc1Oc1ccc(CNC(=O)c2nccnc2N)cn1	16µM*	14µM*
Cc1ccc(CNc2nc(-c3cccnc3)nc3ccccc23)cc1	7%	3%
CCOC(=O)c1c(C)oc2ncnc(N3CCN(c4ccc(C)cc4C)CC3)c12	-9%	-7%
Cc1cc(OCC(=O)Nc2cc(-c3nc4ccccc4[nH]3)ccc2C)ccc1Cl	0%	-6%
CCOc1ccc2nc(N3CCCC(C(=O)NCCc4ccc(OCC)c(OCC)c4)C3)sc2c1 (stereo unspecified)	5%	-1%
CN(C)c1ccc(CNC(=O)CN2C(=O)c3cccnc3Oc3ccc(Cl)cc32)cc1	-1%	-5%
COCCCNC(=O)C1CCC(CNS(=O)(=O)c2ccc(OC)cc2)CC1 (stereo unspecified)	-9%	10%
CC(NC(=O)Cn1cnc2c1c(=O)n(C)c(=O)n2C)c1ccc(-c2ccccc2)cc1 (stereo unspecified)	u	u
CN(C)CCOC(=O)C1(c2ccccc2)CCOCC1	-3%&29%	-6%&22%
COC(=O)c1ccc(/C=C/C(=O)c2cc(C)sc2C)cc1	117%[activator]	2%
O=C(c1cccn1-c1nnc(N2CCCC2)s1)N1CCN(c2ccc(F)cc2)CC1	2%	6%
COc1ccc(Nc2nc3c(S(=O)(=O)c4ccccc4)nnn3c3ccc(Cl)cc23)c(OC)c1	-17%	-5%
COc1ccc2cc(C(=O)OC(C)C(=O)NC(C)(C)C)c(C)nc2c1 (stereo unspecified)	9%	-3%
COc1cccc(CNC(=O)C(C)Oc2ccccc2)c1 (stereo unspecified)	6%	-6%
O=C(c1ccc(Br)cc1)c1ccccc1C(=O)N1CCN(C(=O)C2CC2)CC1	-1%	5%
Cc1cc2c(c(SCC(=O)Nc3ccccc3)n1)C(=O)OC2	-3%	13%
COC(=O)c1ccccc1NC(=O)N1CCc2c(sc3c2CCCC3)C1c1ccc(F)cc1 (stereo unspecified)	-12%	-6%
N#CC1CCCc2c1[nH]c1ccccc21 (stereo unspecified)	-5%	-1%
CCCCn1c(=O)[nH]c(=O)c2c1nc(COC(=O)/C=C/c1ccc(OC)c(OC)c1)n2C	0%	48%[activator]
Ic1ccc2noc(-c3ccccc3)c2c1	46%[activator]	5%
CCO/C([O-])=N/c1c[n+](N2CCOCC2)no1	-10%	-5%
CCN(C(=O)c1cccc(C(=O)OC)c1)C12CC3CC(CC(C3)C1)C2	14%	61%[activator]
CC1CCN(S(=O)(=O)c2ccc(NC(=O)C3=COCCO3)cc2)CC1	2%	27%
O=C(NNC(=O)c1c2c(nc3ccccc13)CCCC2)c1ccccn1	6%	-8%
CCc1ccc(N2CCn3c2nc2c3c(=O)n(Cc3cccc(C)c3)c(=O)n2C)cc1	-11%	-4%
CC(C)N(C(=O)CSc1nc2ccc(Cl)cc2[nH]1)c1ccccc1	11%	7%
CCC(C)NC(=O)Cn1c(=O)c2c(ncn2C2CCCC2)n(Cc2ccccc2)c1=O (stereo unspecified)	3%	5%
COc1ccccc1CNC(=O)CCCN1C(=O)CSc2c1c(C)nn2-c1ccccc1	-10%	-2%

Reformatted with values under each structure: part of the list above
Under each structure: 2A firefly, 2A Renilla
> COc1cccc(CNC(=O)C(C)Oc2ccccc2)c1 (stereo unspecified)
  6%, -6%
> O=C(c1ccc(Br)cc1)c1ccccc1C(=O)N1CCN(C(=O)C2CC2)CC1
  -1%, 5%
> Cc1cc2c(c(SCC(=O)Nc3ccccc3)n1)C(=O)OC2
  -3%, 13%

Next section:
Compound	2A firefly	2A Renilla
COC(=O)c1ccc(Cl)cc1NC(=O)N(C)CCc1c(C)nn(C)c1C	8%	-15%
COC(=O)c1ccc(NC(=O)CSc2nnc(-c3ccccc3OC)n2-c2ccccc2)cc1	17%	13%
CCCCCn1nc(C(=O)Nc2ccc(Br)cc2F)c2ccccc2c1=O	0%	0%
CC1(C)Cc2c(sc(NC(=O)C(=O)NCCO)c2C#N)CO1	38%[activator]	-7%
O=C(COC(=O)c1cccc(NC(=O)c2ccc(Br)cc2)c1)c1ccc(Br)cc1	36%[activator]	3%
CCC(=O)N1c2ccccc2CC1C(=O)NCc1cc(OC)ccc1OC (stereo unspecified)	-19%	-13%
CCCC(=O)c1cc2c(cc1NC(=O)c1ccco1)OCCO2	-6%	-11%
COc1ccc(CCNC(=O)CSc2cn(CCNC(=O)c3ccccc3F)c3ccccc23)cc1OC	17%	0%
CC(=O)c1ccc(S(=O)(=O)N2CCCCCC2c2cccn2C)cc1 (stereo unspecified)	-3%	8%
CCOC(=O)c1cnc2ccc(C)cc2c1Nc1ccc(OCc2ccccc2Cl)cc1	-2%	-8%
Cc1cccc(NC(=O)CCn2nc(-c3ccccc3)c3ccccc3c2=O)c1	30%	145%[activator]
O=C(Cc1ccccc1F)NCCc1c[nH]c2ccccc12	0%	14%
CCc1cccc(C)c1NC(=O)C1CCN(S(=O)(=O)c2c(C)noc2/C=C/c2c(C)cc(C)cc2C)CC1	-17%	-1%
COc1ccc(C)cc1-n1cnc2cc(C(=O)NC3CCCC3)ccc21	-12%	41%[activator]
COCCn1c(-c2ccccc2Cl)n[nH]c1=S	2%	3%
N=C1C(c2nc3ccccc3c(=O)[nH]2)=C(O)CN1c1ccc(Cl)cc1	4%	-1%
Cc1cc(C)cc(C(=O)NCC(=O)OCc2ncc(-c3ccccc3)o2)c1	142%[activator]	-2%
COc1ccccc1OCCN1C(=O)C(NC(C)=O)c2ccccc21 (stereo unspecified)	21%	-6%
CCCOC(=O)Cc1ccc(OCC(=O)N(CC)CC)c(OC)c1	-8%	-4%
O=C(CC(O)C(Cl)(Cl)Cl)c1ccccc1 (stereo unspecified)	0%	13%
CCc1cccc(-n2c(=O)c3cccnc3n2CC(=O)Nc2ccccc2C(=O)OC)c1	-8%	9%
Cc1cc(C)c(NS(=O)(=O)c2cc(-c3onc(C)c3C)ccc2C)c(C)c1	-9%	9%
CC(C)CC(N(C)C)C1(c2ccc(Cl)cc2)CCC1 (stereo unspecified)	-16%[11.5 µM]	-13%
CCCCCCC/C=N/NC(=O)c1ccccc1	173%[activator]	4%
CC1=C(C(=O)OCc2ccccc2)C2(C(=O)Nc3ccccc32)C(C(=O)OC(C)(C)C)=C(N)O1 (stereo unspecified)	-4%	15%
Cc1nnc(N2CCN(c3ccccc3F)CC2)c2c1nnn2Cc1ccccc1	-16%	0%
O=C(NCCSCc1cccs1)C1CC1	30%[activator]	0%
CN(CC(=O)NC(=O)NC1CCCCC1)Cc1ccc2ccccc2c1	13%	1%[1.06 µM]
Cc1ccccc1C(=O)Nc1sc2c(c1C(=O)N1CCCCC1)CCC(C)C2 (stereo unspecified)	1%	174%[activator]
CCOC(=O)c1ccc(NC(=O)c2cc3c(=O)n(C)c4ccccc4c3n2C)cc1	1%	-6%

Looked up above.
Entry for CCc1ccc(N2CCn3c2nc2c3c(=O)n(Cc3cccc(C)c3)c(=O)n2C)cc1 under 2A Renilla: -4%
Entry for Cc1cccc(NC(=O)c2nc(S(C)(=O)=O)ncc2Cl)c1 under 2A Renilla: 35µM*
Entry for CC(Sc1nnc(-c2ccncc2)n1C1CC1)C(=O)c1ccc(F)cc1 (stereo unspecified) under 2A Renilla: -3%

Of the compounds above, these have a furan ring, fused or not.
Compound	2A firefly	2A Renilla
Cc1ccc2nc(-c3ccc(C)o3)cc(C(=O)O)c2c1	25%	-10%
CCOC(=O)c1c(C)oc2ncnc(N3CCN(c4ccc(C)cc4C)CC3)c12	-9%	-7%
CCCC(=O)c1cc2c(cc1NC(=O)c1ccco1)OCCO2	-6%	-11%

(next part)
Compound	2A firefly	2A Renilla
Cc1c2c(cc3c4c(c(=O)oc13)CCCC4)C(O)CC(C)(C)O2 (stereo unspecified)	45%[activator]	0%
CC1(c2ccc3c(c2)OCCO3)NC(=O)N(CC(=O)c2cn(CCC#N)c3ccccc23)C1=O (stereo unspecified)	-1%	2%
Cc1nn(C)c2c1c(C(F)(F)F)cc(=O)n2C(C)C(=O)NCCC(C)C (stereo unspecified)	-8%	-3%
CCCCCn1c(=N)c(S(=O)(=O)c2ccccc2)cc2c(=O)n3ccccc3nc21	3%	8%
O=C(NCC(c1ccc2c(c1)OCO2)N1CCN(c2ccccc2)CC1)c1ccccc1F (stereo unspecified)	23%	-11%
O=C(Nc1ccccc1-c1ccc(Cl)cc1)c1cccnc1Cl	-4%[22.9 µM]	51%[activator][114 µM]
Cc1ccccc1C(=O)Nc1c(C(=O)N2CCN(Cc3ccccc3)CC2)oc2ccccc12	4%	111%[activator]
Cc1cccc(CN2CC=C(C(=O)O)CC2)c1	-1%	7%
CCN1C(=O)c2ccccc2S(=O)c2ccc(C(=O)NC3CCCc4ccccc43)cc21 (stereo unspecified)	13%	69%[activator]
COc1cc(SC)ccc1C(=O)O	5%	13%
O=C(Nc1ccc(Br)cc1)c1cc2nc(-c3ccccc3)cc(-c3ccccc3)n2n1	-15%	-1%
COc1cc(NC(=O)c2nnn(CC(=O)Nc3cc(C)ccc3C)c2N)cc(OC)c1	8%	3%
Cc1ccc(OCCC(=O)N2CCN(S(=O)(=O)c3cccs3)CC2)cc1	-7%	-6%
COC(=O)c1ccc(COC(=O)/C=C/c2ccc3c(c2)OCO3)o1	u	u
O=C(CSc1nnc(-c2ccc(Cl)cc2)n1Cc1ccco1)N1CCCC1	-1%	5%
Cc1cccc(-c2nc(Cn3c(SCc4cccc(C(F)(F)F)c4)nc4ccncc43)c(C)o2)c1	3%	-8%
O/N=C(/Cc1ccccc1)c1ccc(O)cc1O	0%	1%
Cc1cc2oc(=O)cc(CSc3nnc4ccccn34)c2cc1C(C)C	-2%	3%
CCC(C)c1ccc(NC(=O)Cn2nc(C(N)=O)c3ccccc3c2=O)cc1 (stereo unspecified)	0%	3%

High-throughput results: PubChem, National Center for Advancing Translational Sciences (NCATS)
